TRPML1 agonist = human mucolipin-1 channel agonism; activation, % (no concentration beside the values); Q9GZU1; TRPML1-expressing cells, Ca2+ dye fluorescence, FDSS; host cell line not named in the record; reference of the full effect not given here; AID 624414; 0.12% of 410,000 active; in the data active = activation above about 50%; inconclusive = about 30% to 50%; inactive = below about 30%; note: 0% is about no effect; the text of the record puts the active cut at 80%
Target sequence (Q9GZU1 whole entry, looked up): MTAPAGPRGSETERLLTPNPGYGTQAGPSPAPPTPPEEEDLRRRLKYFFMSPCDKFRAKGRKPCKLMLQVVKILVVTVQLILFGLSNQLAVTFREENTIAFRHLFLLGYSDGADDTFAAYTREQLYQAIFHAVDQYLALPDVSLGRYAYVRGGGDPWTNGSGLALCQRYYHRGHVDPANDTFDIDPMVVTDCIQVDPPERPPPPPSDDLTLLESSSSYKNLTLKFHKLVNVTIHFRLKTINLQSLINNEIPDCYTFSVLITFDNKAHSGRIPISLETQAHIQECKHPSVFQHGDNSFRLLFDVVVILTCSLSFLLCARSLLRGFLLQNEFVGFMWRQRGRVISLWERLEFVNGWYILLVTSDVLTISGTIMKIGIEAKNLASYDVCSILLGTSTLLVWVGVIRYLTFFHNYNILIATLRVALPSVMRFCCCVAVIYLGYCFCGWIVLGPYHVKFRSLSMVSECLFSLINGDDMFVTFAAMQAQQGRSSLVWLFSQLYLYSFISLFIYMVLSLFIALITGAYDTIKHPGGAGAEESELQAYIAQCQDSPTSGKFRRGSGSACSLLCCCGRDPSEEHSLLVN
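Tetracycline-induced TRPML1-DL cells are seeded and incubated overnight before loading with a no-wash Ca2+ dye and quencher. Agonist activity is taken from the 110 s fluorescence read following compound pin-transfer on an FDSS, before EC80 54-4 challenge.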
gsp antag = gsp mutant antagonism; Potency, µM (doses to about 76.9 µM), inactives show at the top dose activity change, negative = inhibition, actives largely listed as inhibitors; gsp-mutant cells, cAMP HTRF, 30 min; control for the full effect not named in the record; 0.4% of 340,000 active; active = falling curve of any shape with a large fitted effect; inconclusive = falling curve, mostly with a smaller effect; inactive = flat or rising curve; cell line not stated here;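 note: intracellular cAMP measured with PDE inhibitor Ro 20-1724 present during compound exposure; potency is the fitted concentration of half-maximal effect; % is set by controls: 0 for no effect and ±100 for the full control effect; nearly all actives have a fitted effect of over 65% in size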
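HTRF cAMP measurement after 30 min RT detection following 30 min, 37C compound treatment alongside […] (added as 300 uM solution) in G418-selected cells seeded at 2000/well and grown 16–24 h.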
TRPML1 blocker = blocks the human TRPML1 channel; Q9GZU1; TRPML1-inducible cells, Ca2+ dye fluorescence, FDSS; stronger effect = lower value; inhibition of EC80 agonist-evoked calcium signal; activity change, negative = inhibition, % (test concentration not listed); 0.02% of 390,000 active; in the data active means activity change below about -50%; inconclusive means about -30% to -50%; inactive means above about -30%;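 note: stimulus is agonist 54-4 at its EC80 concentration; % is set by controls: 0 for no effect and ±100 for the full control effect; compound concentration not given in the record; the text of the record puts the active cut at -80%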
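Tet-induced TRPML1-DL cells loaded with Ca8 no-wash calcium dye were read kinetically on FDSS. Compound addition was followed by EC80 agonist 54-4 (4 uM final); inhibition was read over 110 s.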
Menin MLL FP FL = displaces fluorescein MLL peptide from human menin | Fluorescence polarization, fluorescein-MLL peptide displacement from menin | FP activity change, % at 61.4 µM | 290,000 tested, under 10 active; inconclusive = falling polarisation curve, or a change in total fluorescence; inactive = total fluorescence flat and polarisation flat or rising; no compound was filed as active; the % refers to the polarisation; negative = inhibition;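 note: % of control where 0% means no effect; inhibitors lower the polarisation; unlabelled MLL peptide was the positive control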
ClpP mod = qHTS Assay for Activators of ClpP. purified B. subtilis ClpP, FRET peptide cleavage, 20 min. AID 651965, 2013. Potency, µM (titrated, usually from 57.5 µM), without a hit: at the top dose activity change, negative = active. ATP-dependent Clp protease proteolytic subunit (Bacillus subtilis (strain 168)), P80244. 1.9% of 340,000 active; active = well fitted falling curve with a large enough effect; inconclusive = small, poorly fitted or top-dose-only effect; inactive = no such curve, though single readings can be large or run the other way; note: potency is the fitted concentration of half-maximal effect; the source files actives as falling curves though it sought activators and does not explain the sign; nearly all actives have a fitted effect of over 65% in size; many hits overshoot -100%
Target sequence (P80244 whole entry, looked up): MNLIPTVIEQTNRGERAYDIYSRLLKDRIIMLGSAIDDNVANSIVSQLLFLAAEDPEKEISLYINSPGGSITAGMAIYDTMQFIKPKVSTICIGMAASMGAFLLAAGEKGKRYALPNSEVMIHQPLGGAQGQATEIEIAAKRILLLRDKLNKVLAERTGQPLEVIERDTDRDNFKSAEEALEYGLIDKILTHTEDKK
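ClpP 10 microg/mL final, pH 8 Tris/KCl buffer with BSA, glycerol, Tween-20; compound pinned in; FRET-FV substrate; RT 20 min; Ex320/Em430; ΔFRET vs ADEP 5.8 microM, DMSO, no enzyme.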
gsp agonist = agonists of gsp mutant (McCune-Albright syndrome); gsp mutant cells, cAMP HTRF, 30 min; control for the full effect not named in the record; Potency, µM (titrated, usually from 76.9 µM), without a hit: at the highest dose activation (cAMP increase), actives largely listed as activators; 0.13% of 340,000 active; AID 624287; active = well fitted activation curve with a large enough effect; inconclusive = small, poorly fitted or top-dose-only effect, or another doubt; inactive = no such curve, though single readings can be large or run the other way; cell line not stated here;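 note: phosphodiesterase inhibitor Ro 20-1724 added with compounds to block cAMP breakdown; potency is the fitted concentration of half-maximal effect; nearly all actives have a fitted effect of over 60% in size; about a fifth of the inactives were tested at one dose only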
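Cells stably selected in G418 were plated at 2000/well, grown 16-24 hr, then given compounds in DMSO with the PDE inhibitor […] (300 uM solution added) for 30 min at 37C; cAMP was read by HTRF.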
Starred values were filed as active, the others as inactive; ? = inconclusive; / = not tested or not shown; [ ] = remark or other dose.

SMILES	TRPML1 agonist	gsp antag	TRPML1 blocker	Menin MLL FP FL	ClpP mod	gsp agonist
CCc1nnc(NC(=O)C2CCCN2C(=O)NC2CCCCC2)s1 (centres undefined)	0.2	15%	14	3.1	1.8%	19%
COc1ccc(CNC(=O)CCNC(=O)N2CCn3c2nc2ccccc23)cc1	-1.2	5%	11	-8.4	1.4%	-23%
O=C1c2ccsc2SCCN1Cc1ccccc1	0.7	0%	-27	3.9	1.3%	-73%[inhibitor]
O=C1Nc2cc(C(=O)N3CCN(c4ccc(F)cc4)CC3)ccc2NC1CSCc1cccc(F)c1 (centres undefined)	-0.4	-11%	12	/	/	-12%[15.4 µM]
CN(C)S(=O)(=O)c1ccc(NC(=O)C2COc3ccccc3O2)cc1 (centres undefined)	0.5	3%	-3	5.3	-2.6%	-75%[inhibitor]
COCCNCc1nc2sc(C)c(-c3ccccc3)c2c(=O)[nH]1	-0.6	-4%	-14	-2.4	/	-9%[15.4 µM]
CCN1CCN(C(=O)c2cc3c(=O)oc4ccc(C)cc4c3s2)CC1	0.8	6%	-6	0.6	-5.8%	?
CN(CC(=O)Nc1ccc(OC(F)(F)F)cc1)C1CCCCC1	/	-16%	/	-5.0	-1.2%	?
O=C1/C(=C/c2ccccc2)SC(=S)N1CC(=O)N1CCCCC1c1cccnc1 (centres undefined)	0.3	40µM*	0	2.8	1.3%	30%
Cn1nc(C(F)(F)F)c(-c2ccccc2)c1NC(=O)CCC(=O)O	0.7	-13%	-2	-0.4	/	1%[15.4 µM]
COc1ccccc1OCCCC(=O)NC(C)c1ccccc1 (centres undefined)	0.6	-4%	-2	1.2	1.3%	-36%[inhibitor]
CCOc1ccc(C2=NNC(c3cccnc3)=Nc3ccc(OC)cc32)cc1	-0.3	-11%	-12	2.4	-2.5%	-2%

Only TRPML1 blocker, for three of the compounds above:
SMILES	TRPML1 blocker
COCCNCc1nc2sc(C)c(-c3ccccc3)c2c(=O)[nH]1	-14
O=C1/C(=C/c2ccccc2)SC(=S)N1CC(=O)N1CCCCC1c1cccnc1 (centres undefined)	0
CCOc1ccc(C2=NNC(c3cccnc3)=Nc3ccc(OC)cc32)cc1	-12

More compounds
SMILES	TRPML1 agonist	gsp antag	TRPML1 blocker	Menin MLL FP FL	ClpP mod	gsp agonist
CCC(C(=O)O/N=C(\N)c1ccc(Cl)cc1)c1ccccc1 (centres undefined)	1.5	-3%	-5	0.5	-1.3%	-4%
Cn1c(=O)n(CCCOc2ccc(Br)cc2)c2ccccc21	2.5	-1%	23	-0.4	-1.4%	42%
O=C(Cn1cc([N+](=O)[O-])cn1)NC1CCCCCC1	-0.4	2%	6	1.4	/	14%[15.4 µM]
CCCN1Cc2cccc(C(=O)NCc3ccc4c(c3)OCO4)c2C1=O	0.6	-6%	30	3.6	-2.2%	?
COc1ccc(NS(=O)(=O)c2ccc(N3CCCC3=O)cc2)cn1	-0.2	8%	13	0.1	/	-14%[15.4 µM]
CCOC(=O)c1[nH]c(C)c(C(=O)NCc2cccnc2)c1C	1.7	3%	-15	1.6	0.3%	-5%
CN(C)CCN1C(=O)C(O)=C(C(=O)c2ccco2)C1c1ccccc1F (centres undefined)	0.2	13%	3	3.7	-6.6%	?
Cc1ccc(-c2csc3nc[nH]c(=O)c23)cc1	1.6	2%	-5	-0.5	/	-16%[15.4 µM]
O=C(c1ccc([N+](=O)[O-])cc1)n1nc(-c2ccccc2)nc1NCc1ccccc1	1.1	11%	15	3.0	1.7%	-9%
Clc1ccc2c(SCC3CO3)c3ccccc3nc2c1 (centres undefined)	1.2	-5%	18	/	32µM*	?
COCCn1cnc2c1c(=O)n(CC(=O)c1ccc3c(c1)OCCO3)c(=O)n2Cc1ccccc1	-0.9	-12%	-4	7.5	/	-6%[15.4 µM]
COC(=O)c1sccc1S(=O)(=O)N1CCN(c2ccc(Cl)cc2)CC1	1.4	/	24	/	-1.5%	/
CCSc1nnc2c(n1)OC(CC)N(C(C)=O)c1ccccc1-2 (centres undefined)	1.7	/	9	/	-3.0%	/
CCCCn1cc(S(=O)(=O)c2ccc(C)c(C)c2)c(=O)c2cc(F)c(N3CCN(C)CC3)cc21	-1.0	/	-7	/	-24%	/
COc1cccc(CNC(=O)c2nnn(CC(=O)Nc3cc(C)ccc3C)c2N)c1	-0.8	11%	-2	6.1	-2.1%	?
O=C(NN1C(=O)c2ccccc2C1=O)c1ccncc1	1.0	-9%	9	-4.3	-0.2%	-21%
O=c1[nH]c2cc3c(cc2cc1CN(CC1CCCO1)S(=O)(=O)c1ccccc1)OCCO3 (centres undefined)	-0.3	-2%	12	3.4	?	-27%
N=c1n(CCN2CCOCC2)c2ccccc2n1Cc1ccccc1Br	-0.7	3%	3	3.3	-3.4%	1%
Oc1c(C=Nc2ccc(Cl)cn2)sc2ccccc12	3.4	13%	3	?	/	8%
O=C(COC(=O)c1ccc(Cl)nc1)NCc1cccs1	0.2	6%	38	0.3	1.9%	4%
O=S(=O)(O)c1cc(O)c2c(O)c(N=Nc3cc(Cl)ccc3O)c(S(=O)(=O)O)cc2c1	-0.6	?	-8	-2.5	/	-80%[inhibitor]
COc1ccc(S(=O)(=O)Nc2ccc3c(c2)N(C(C)=O)CCC3)cc1	-0.2	6%	3	/	0.6%	-2%
C/C(CC(=O)Nc1cc(Cl)ccc1Cl)=N\NC(N)=S	1.4	5%	-12	3.4	-0.2%	14%
c1ccc(C2(CN3CCNC[C@H]3Cc3cccc4ccccc34)CC2)cc1	-0.5	16%	40	/	-0.9%	/
COc1cc(/C=N/NC(=O)c2ccncc2)c([N+](=O)[O-])cc1OC	-0.5	-6%	34	-1.2	-0.8%	-39%
COc1cc(/C=N/n2cnnc2)ccc1OC(=O)c1ccco1	0.5	14%	0	1.5	-10%	-18%
COc1ccc(C)cc1NC(=O)CSc1cccc[n+]1[O-]	-1.2	5%	-6	/	-0.4%	-29%
CCCCc1nc(C(N)=O)c2[nH]c(=O)n(-c3ccc(OC)cc3OC)c2n1	0.4	10%	3	-0.3	-2.7%	-11%
COc1cccc(OCc2cc(C(=O)NC(C)c3cnn(C)c3C)no2)c1 (centres undefined)	-0.7	6%	2	-11	-0.1%	18%
c1ccc(-c2noc(CN3CCOCC3)n2)cc1	-0.5	1%	-8	-2.7	/	31%[15.4 µM]
Cc1ccc2[nH]c3c(c2c1)CCCC3NC(=O)CCl (centres undefined)	-0.6	-6%	25	0.0	/	0%
O=S(=O)(NCCN1CCCC1)c1ccc(Br)cc1	0.5	10%	-8	-3.0	-2.1%	-4%
O=C(Cn1cnc2ccccc2c1=O)NCC1COc2ccccc2O1 (centres undefined)	-0.4	3%	-10	1.4	-0.7%	?
COc1ccc(N(C(C)C(=O)N/N=C/c2ccc(OC)c(OC)c2)S(C)(=O)=O)cc1 (centres undefined)	2.1	9%	-11	0.7	-4.2%	7%
CCc1ccc(NC(=O)Cn2c(=O)ccc3cc(S(=O)(=O)N4CCCC4)ccc32)cc1	1.6	/	4	/	-0.5%	/
Cc1ccc(-n2ncc(C(=O)N(C)Cc3ccccc3)c2-n2cccc2)cc1	-0.1	/	4	/	0.2%	/
CCOc1cccc(C(=O)Nc2nnc(S(=O)(=O)N(C)c3ccc(C)cc3)s2)c1	3.9	/	18	/	-12%	/
CCc1nc(SCC(=O)c2cc(C)ccc2C)n[nH]1	0.9	0%	-18	3.6	-3.0%	-14%
O=C(Nc1cc(C(F)(F)F)ccc1Cl)c1noc2c1CCCCC2	-1.2	/	-2	/	49%	/
COc1ccc(-c2cc(C(F)(F)F)nc(S(=O)(=O)CCCC(=O)Nc3cccnc3Cl)n2)cc1OC	0.7	27%	8	-0.6	/	-10%[15.4 µM]
OC(COC(c1ccc(Cl)cc1)c1ccc(Cl)cc1)CN1CCc2ccccc2C1 (centres undefined)	1.2	9%	-3	11	/	16%
COCCN1C2=C(C(=O)CC(C)(C)C2)C(c2ccc(O)c(OC)c2)C2=C1CC(C)(C)CC2=O	/	0%	/	-0.1	-0.5%	-47%
O=C(O)c1cc2nc(-c3ccccc3)cc(C(F)(F)F)n2n1	1.1	-14%	7	-0.6	-13%	-26%
CC(=O)Nc1ccc(C(=O)/C=C/c2ccco2)cc1	0.0	-18%	57	?	0.8%	-42%[inhibitor]
CC(C)(C)c1ccc(/C=N/N2CCN(c3ccccn3)CC2)cc1	0.6	-11%	-7	-1.0	/	2%[15.4 µM]
O=S(=O)(c1ccc2ccccc2c1)N1CCN(S(=O)(=O)N2CCOCC2)CC1	0.6	5%[15.4 µM]	-18	2.6	-0.9%	-7%
COc1ccc(OC)c(NC(=O)CN2C(=O)C(=O)N(Cc3ccccc3)C2=O)c1	-0.2	-14%	-2	/	1.3%	0%
CC1(C)C(C#N)=C(N)OC2=C1C(=O)CCC2	-0.7	1%	12	-0.6	0.9%	-34%[inhibitor]
CCc1ccc(CNC(=O)CN2C(=O)CSc3ccc(S(=O)(=O)N4CCOCC4)cc32)cc1	0.1	/	-14	/	-0.8%	/
CCn1c(N)c(C(=O)NCCCOC)sc1=S	1.2	0%	-3	5.6	1.3%	-27%
O=C(Nc1ccc(N2CCOCC2)cc1)C1CCCCC1	-0.4	-8%	-1	-0.4	-0.2%	-20%
COc1cc(NC(=S)NCCC(c2ccccc2)c2ccccc2)cc(OC)c1	6.4	-21%	14	2.0	/	-7%
CCOCCCNS(=O)(=O)c1ccc(NC(=O)C2CC(=O)N(c3ccc(C)cc3)C2)cc1 (centres undefined)	1.9	4%	47	-0.2	/	?
CSc1c(-c2ccccn2)c(N)nn1C(=O)C1CCC1	0.8	-3%	13	0.2	-0.6%	3%[15.4 µM]
CC(=O)Nc1ccc(CN(C)c2c(C)nc3ccc(C(=O)Nc4ccc(Cl)c(Cl)c4)cn23)cc1	-0.6	/	?	/	-5.1%	/
Cc1cc(C)c2nc(SCC(=O)Nc3ccccc3N3CCOCC3)c(C#N)cc2c1	-0.3	15%	-2	/	-4.0%	?
CCOc1ccccc1Nc1ncccc1C(=O)O	0.1	-6%	-6	0.3	0.4%	-41%[inhibitor]
Nc1nc(SCc2ccccn2)c2ncn(C3OC(CO)C(O)C3O)c2n1 (centres undefined)	-0.3	5%	-3	/	/	28%
COc1cc2[nH]c(=O)n(CCCCCC(=O)N3CCN(c4ccccn4)CC3)c(=O)c2cc1OC	0.5	-5%	-1	3.0	?	-57%[inhibitor]
CCCCn1c(N)c(N(CCOC)C(=O)COC(=O)C(C)Oc2ccc(Cl)cc2)c(=O)[nH]c1=O (centres undefined)	0.0	1%	-9	/	-1.9%	3%

Screens from PubChem.
